Screens: PubChem, Broad Institute
ALR H2O2 inh: inhibitors of human sulfhydryl oxidase ALR; P55789; purified ALR, DTT oxidation, H2O2 HRP-luminol luminescence; inhibition, % (concentration not given with the values); 3.8% of 290,000 active; AID 485317;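 active = mean and each replicate at 75% or more; inconclusive = only one of the two met; inactive = neither met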;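 note: stock transfer was 7.5 nL into about 7.5 µL; 0% = neutral wells and 100% = wells with inactivated enzyme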
Target sequence (P55789 whole entry, looked up): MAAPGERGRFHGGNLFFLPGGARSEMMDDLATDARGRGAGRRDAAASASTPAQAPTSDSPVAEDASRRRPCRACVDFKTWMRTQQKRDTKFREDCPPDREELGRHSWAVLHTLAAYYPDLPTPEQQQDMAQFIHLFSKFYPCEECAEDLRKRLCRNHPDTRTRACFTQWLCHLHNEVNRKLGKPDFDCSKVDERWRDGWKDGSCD
Ecoli rRNA inh: inhibits bacterial ribosomal RNA function over humanized ribosomes. E. coli WT GFP vs humanized-ribosome RFP mutants, fluorescence, 24 h; stronger effect = lower value; DMSO median 0, no signal -100. GFP signal change (wild-type ribosome), % (concentration not given with the values). 1.6% of 350,000 active. AID 720706;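 active = significant combined selectivity score with lowered wild-type GFP, culture density cut under 30%, mutant RFP and density less affected; inactive = any of these conditions unmet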; note: one replicate is shown; some compounds called inactive have numbers as strong as hits
RanGTP-Imp inh: disruptors of Ran-importin-beta complex formation – biochemical, FRET, CFP-Ran, YFP-importin-beta, homogeneous, primary screen; AID 2216; cell-free CFP-Ran/YFP-importin-beta FRET ratio; inhibition, % (concentration not given with the values); 1.1% of 300,000 active;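 active = most replicates above 15%; inconclusive = exactly half above 15%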;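 note: 0% = DMSO wells and 100% = Ran loaded with GDP instead of GTP; wells of about 40 µL received 100 nL stock; the first replicate is given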
T cruzi repl: T. cruzi replication inhibition; T. cruzi beta-gal in NIH3T3, luminescence, 90 h; inhibition, % (no concentration beside the values); 1.4% of 300,000 active; AID 1885;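 active = mean inhibition across valid replicates above about 55%, limit read from the data; inconclusive = mean below that limit but half or more replicates reach it; inactive = mean below it, under half of replicates reach it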;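 note: signal also drops with host cell toxicity which is not excluded here; 0% = plate median of DMSO wells and 100% = zero luminescence signal; higher percent means less beta-gal luminescence so fewer parasites; stock transfer was 50 nL into about 50 µL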
MLL AF4-AF9 inh: inhibitors of human MLL-AF4/AF9 interaction | P42568 | AlphaScreen, biotin-AF4 peptide binding to FLAG-AF9 | inhibition, % at 10 µM | 0.47% of 350,000 active | AID 651704;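 active = every replicate reaching a set inhibition limit, whatever the replicate mean, cut at about 25% in these data; inconclusive = mean inhibition reaches that limit but some replicates miss it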;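 note: 0% = plate neutral control median and 100% = total signal loss; the record names both 10 and 1 µM as test concentration; the first replicate is given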
Target sequence (P42568 whole entry, looked up): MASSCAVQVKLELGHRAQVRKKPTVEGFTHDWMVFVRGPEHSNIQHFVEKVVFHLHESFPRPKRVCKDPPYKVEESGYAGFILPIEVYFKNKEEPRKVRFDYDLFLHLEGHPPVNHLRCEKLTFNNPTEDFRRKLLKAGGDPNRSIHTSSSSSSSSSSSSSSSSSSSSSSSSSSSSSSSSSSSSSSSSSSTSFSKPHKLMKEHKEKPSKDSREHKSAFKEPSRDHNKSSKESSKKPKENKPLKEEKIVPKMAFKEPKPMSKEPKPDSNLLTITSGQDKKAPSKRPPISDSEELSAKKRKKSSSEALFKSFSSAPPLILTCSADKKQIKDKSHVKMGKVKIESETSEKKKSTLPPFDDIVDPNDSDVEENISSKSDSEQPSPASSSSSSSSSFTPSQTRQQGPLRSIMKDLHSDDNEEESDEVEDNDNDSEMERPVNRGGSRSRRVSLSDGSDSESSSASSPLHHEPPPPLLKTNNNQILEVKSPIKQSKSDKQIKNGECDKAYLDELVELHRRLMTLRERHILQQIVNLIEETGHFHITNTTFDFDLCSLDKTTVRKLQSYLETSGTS
Calb FLC: C. albicans growth modulation with fluconazole. C. albicans CaCi-2 (fluconazole-resistant clinical isolate) + fluconazole, Alamar Blue growth, 48 h. growth inhibition, % (no concentration beside the values). 0.57% of 300,000 active. AID 1979;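 active = most replicates above 75%; inconclusive = exactly half above 75%; inactive = most below 75%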;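 note: all wells also contain fluconazole at 8 µg/ml as a sub-toxic cotreatment; 0% = median of DMSO wells and 100% = median of geldanamycin control wells; wells of about 8 µL received 7.5 nL stock; the first replicate is given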
Beta apoptosis: beta cell apoptosis inhibition | INS-1E cytokine-induced death, ATP luminescence, 48 h; percent of positive-control rescue, neutral wells zero | protection from apoptosis, % (no concentration beside the values) | 0.8% of 300,000 active | AID 435005;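 active = all replicates at 75% or more, or half of them and the mean; inconclusive = half reach 75% but not the mean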;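 note: 0% = cytokine-treated negative control wells and 100% = positive control rescue; higher means more ATP so stronger rescue from cytokine killing; wells of about 40 µL received 100 nL stock; the first replicate is given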
FGF22 binding: binders of recombinant human FGF22 by thermal shift; Q9HCT0; SYPRO orange fluorescence; percent of sucrose octasulfate shift, DMSO zero; calls only at 9.99 µM; 1.5% of 340,000 active; AID 651658;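 active = melting point raised past a set limit in the mean and every replicate; inconclusive = no clear call; three in four hits are not shown here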
Target sequence (Q9HCT0 whole entry, looked up): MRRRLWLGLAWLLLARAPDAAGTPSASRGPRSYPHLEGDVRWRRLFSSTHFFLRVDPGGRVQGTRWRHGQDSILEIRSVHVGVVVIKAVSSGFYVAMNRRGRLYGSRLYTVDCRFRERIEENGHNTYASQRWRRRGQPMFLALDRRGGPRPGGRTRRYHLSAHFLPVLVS
Ecoli rRNA inh OD600: recorded beside Ecoli rRNA inh, whose call it bears; OD600 change, %; measured here: OD600 growth;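 optical density of the mix in the first replicate; 0 = DMSO median and -100 = no signal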
Ecoli rRNA inh RFP: second read-out of Ecoli rRNA inh, no call of its own (marks repeat the call); RFP signal change, %; measured here: RFP humanized mutant strains;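 first replicate; 0 = DMSO median and -100 = no signal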
* marks the source's active call; other numbers are inactive results; i = inactive; ? = inconclusive; / = no result given; & = joins results of further samples. This is a subset, so the mix of outcomes need not match the whole.

No.	SMILES	ALR H2O2 inh	Ecoli rRNA inh	Ecoli rRNA inh OD600	Ecoli rRNA inh RFP	RanGTP-Imp inh	T cruzi repl	MLL AF4-AF9 inh	Calb FLC	Beta apoptosis	FGF22 binding
1	O=C(Cn1ncc2c([nH]c3ccccc32)c1=O)NCCCN1CCN(c2ccccc2)CC1	5	6	12	-1.9	-1.9	-5	2.4	5	/	i
2	O=C(c1cc(-c2cccs2)nc2ccccc12)N1CCN(S(=O)(=O)c2cccc(F)c2)CC1	-6	/	/	/	2.5	27	/	19	4	/
3	C=CCC[C@@H](Cc1ccc(F)cc1)C(=O)OC[C@H](C)NC(=O)[C@@H](CC=C)CC(=O)N[C@@H](CO)Cc1ccccc1	-3	1	9	9.9	/	/	1.5	/	1	i
4	O=C(NNCc1ccc(O)cc1)c1ccccc1Cl	99*	20	17	1.9	0.8	4	-1.7	-10	-3	i
5	C=CCOc1ccccc1/C=N/NC(=O)Cc1ccc(C)cc1	-11	-6	-5	-1.9	0.2	-15	6.5	-1	2	i
6	CCCc1nnc(SCC(=O)Nc2cccc(Cl)c2Cl)o1	-14	-4	0	-0.5	-2.1	5	-2.1	-2	-7	i
7	O=C(CN(C(=O)CCC(=O)Nc1nccs1)C1CCCC1)NCc1ccc2c(c1)OCO2	-5	5	8	-2.1	-3.8	-8	-0.1	-22	/	i
8	CCOC(=O)[C@H]1[C@H]2COc3ccc(Cl)cc3[C@@H]2N2C(=O)CNC(=O)[C@@]12C	-1	10	3	2.9	/	/	-1.3	/	-5	i
9	O=C(Nc1cc(S(=O)(=O)N2CCCC2)ccc1OCC(F)(F)F)c1ccc(F)cc1	0	/	/	/	2.4	1	/	3	/	/
10	COc1ccccc1NC(=O)N1CCN(C)CC1	-16	12	13	0.6	-3.5	-11	-1.5	1	-2	i
11	Cc1c(C(=O)NCCCN2CCCC2=O)oc2ccccc12	-9	/	/	/	/	-3	/	4	-4	/
12	CCn1c(=O)n(CC)c2cc([N+](=O)[O-])ccc21	-10	/	/	/	3.2	-28	/	-2	-13	/
13	CCc1ccc(N(CC(=O)Nc2sc3c(c2C(=O)OC)CCCC3)S(C)(=O)=O)cc1	/	/	/	/	-2.0	23	/	22	1	/
14	O=C(NCc1ccco1)C1CCCN1C(=O)Nc1ccc(Cl)cc1 (centres undefined)	1	8	11	2.1	-1.7	4	-0.9	-7	-8	i
15	c1ccc2[nH]c(CN3CCCCC3)nc2c1	-2	/	/	/	1.8	-17	/	-4	1	/
16	Cc1ccc(NC(=O)C(Nc2ccccc2)c2ccccc2)cc1 (centres undefined)	-3	13	6	4.8	1.7	8	-3.6	-6	2	i
17	C/C(=N/NC(=O)c1ccco1)c1ccc(Br)s1	-7	-16	-21	-5.3	3.3	-10	2.1	4	2	i
18	CN(C)c1ncc(S(=O)(=O)c2ccc(Cl)cc2)c(-c2ccc(Cl)cc2Cl)n1	-2	/	/	/	-7.4	22	/	-1	15	/
19	COc1ccc(/C(C)=N/Nc2ccccc2Cl)c(O)c1	5	1	-1	-8.6	0.1	-11	-1.2	-54	-4	i
20	CCc1ccc(OCC2c3cc(OC)c(OC)cc3CCN2C(=S)NCCOC)cc1 (centres undefined)	-4	-7	-15	-0.5	-4.4	9	8.1	0	-9	i
21	CCc1nnc(NC(=O)CCC(=O)N2CCN(Cc3cc(F)ccc3OC)CC2)s1	-6	/	/	/	-0.9	29	/	3	-3	/
22	COc1ccc(CSc2nncn2N)cc1Br	-15	/	/	/	-8.9	-6	/	-9	-6	/
23	S=c1[nH]nc(COc2ccc(Cl)cc2)n1Cc1ccco1	23	-47	-74	-12	-2.8	4	-6.1	35	-1	i
24	CCCCOCCCNC(=O)c1ccc(NC(C)=O)cc1	-5	/	/	/	-6.2	-28	/	-1	-7	/
25	CC(=O)Nc1nnc(CCS(=O)(=O)c2ccc(C)cc2)s1	/	11	6	-1.6	-0.7	-2	-0.8	0	-1	i
26	NC(=O)c1cccnc1Nc1cccc(F)c1	1	3	7	-8.8	-0.7	-10	-3.0	30	-7	i
27	CCOC(=O)C1CCN(C(=O)CCNC(=O)Cn2ccc3ccccc3c2=O)CC1	-5	3	9	-6.3	-0.3	-16	/	-3	2	/
28	Cc1ccc2nc(NC(=O)[C@H](C)N3C(=O)C4CC=CCC4C3=O)sc2c1 (some centres undefined)	-2	-1	-7	3.3	1.9	4	5.1	5	4	i
29	CCCCN(C(=O)c1ccc(-c2ccc(Cl)cc2)o1)c1c(N)n(CCCC)c(=O)[nH]c1=O	2	/	/	/	/	/	-1.8	/	13	i
30	O=C(CSc1nc2ccccc2[nH]1)NC1CCCc2ccccc21 (centres undefined)	-1	/	/	/	-0.7	0	0.0	11	/	i
31	COc1ccc(-c2nc(CSCC(=O)N3CCN(C(=O)c4ccco4)CC3)c(C)o2)cc1OC	99*	1	2	0.8	12	6	-5.1	0	-3	i
32	Cc1cc(C)c(C(=O)N2CCCC(CNS(=O)(=O)N(C)C)C2)o1 (centres undefined)	0	17	11	-2.7	-2.0	-5	-3.5	2	-4	i
33	CC1CCN(c2nnc(N3CCC(C)CC3)c3ccccc23)CC1	4	-7	-6	-2.8	-1.5	45	-2.0	-8	-2	i
34	O=C(CCN1CCCCCC1)Nc1ccc(F)c(F)c1	/	/	/	/	-2.7	-3	/	-12	-5	/
35	CC(=O)c1ccccc1OCC(O)CN1CCN(CCN2C(=O)c3cccc4cccc(c34)C2=O)CC1 (centres undefined)	-16	-18	-6	-3.4	0.6	52	0.7	?	15	i
36	O=C(CCCCCNC(=O)c1ccccc1)N/N=C/c1ccc(O)cc1O	73	/	/	/	?	0	/	2	-9	/
37	C[C@H](CO)N1C[C@H](C)[C@@H](CN(C)C(=O)NC2CCCCC2)Oc2c(NC(=O)C3CC3)cccc2C1=O	-3	5&6	6&15	-1.5&-5.2	/	/	-4.0&3.1	/	-3	i
38	O=C(CN1CCN(C(=O)c2ccc(-c3nc4ccccc4s3)o2)CC1)Nc1ccc(F)cc1	-3	-32	-52	-7.1	/	/	4.3	/	-5	i
39	Cc1ccsc1C(=O)OCC(=O)c1ccc(OC(F)F)cc1	2	-3	4	-3.3	/	/	-0.5	/	6	i
40	COc1cccc(C(=O)NC(=S)Nc2ccc3[nH]c(=O)[nH]c3c2)c1	/	5	8	1.7	3.6	3	-3.6	-10	-5	/
41	CSc1nc(C)cc(OCC(=O)N2CCOCC2)n1	-8	/	/	/	0.7	7	/	0	-8	/
42	CS(=O)(=O)N1CCCC(C(=O)Nc2ccccc2C(F)(F)F)C1 (centres undefined)	-17	/	/	/	1.4	-25	-5.6	-20	-5	i
43	COc1cc(-c2ccc(NC(=O)CN3CCC(C)CC3)c(OC)c2)ccc1NC(=O)CN1CCC(C)CC1	/	3	2	1.1	5.1	27	/	-3	/	/
44	COc1ccc(/C=C/C(=O)NC(=S)NNC(=O)c2cccs2)cc1OC	99*	12	5	-4.7	2.8	3	0.9	-3	1	i
45	COC(=O)CNC(=O)c1cn(CC(C)C)c(=O)c2cc(OC)c(OC)cc12	/	/	/	/	?	-5	/	2	-3	/
46	COc1cccc(OCc2cc(C(=O)N3CCN(C4CCCC4)CC3)no2)c1	-6	-1	-1	0.0	0.9	25	1.1	6	/	i
47	CC(=O)c1ccc(Cc2ncc(C(F)(F)F)cc2Cl)s1	-19	/	/	/	3.0	-16	/	-5	-6	/
48	O=C(CSc1n[nH]c(=O)n1C1CC1)Nc1ccc(OC(F)(F)F)cc1	-3	-10	-9	-0.4	/	/	-1.6	/	0	i
49	Cc1ccc(NC(=O)COC(=O)c2c[nH]c3ccccc23)cc1C	3	-5	2	-0.8	/	/	0.2	/	-3	i
50	CCCC[C@@H]1CN=C(N)N1CC(C)(C)C	2	4	5	-0.4	2.2	9	1.2	-1	/	i
51	COc1cccc(C(=O)Oc2cccc(N3C(=O)C4C5CC(C(Br)C5Br)C4C3=O)c2)c1 (centres undefined)	-10	/	/	/	0.5	-7	/	2	0	/
52	CSc1nc(-c2ccco2)nn1C(=O)c1ccco1	29	13	16	1.7	-1.0	-2	-1.5	2	-4	i
53	COc1ccc(CCNC(=O)C(=O)Nc2ccc3c(c2)OCCO3)cc1OC	/	23	32	-0.1	0.3	-11	1.7	-4	-5	i
54	Cc1cc(NCCCN2CCOCC2)n2ncc(-c3ccc(Cl)cc3)c2n1	-3	/	/	/	-0.4	28	/	32	-4	/
55	O=C(CSc1nc2ccccc2s1)N1N=C(c2cccs2)CC1c1ccc(F)cc1 (centres undefined)	24	/	/	/	1.5	56*	/	16	10	/
56	O=C(CN(C1CCCCC1)S(=O)(=O)c1ccc(Br)cc1)NCc1ccncc1	-6	-33	-38	-5.3	-1.3	19	1.8	-4	3	i
57	CCn1c(SCC(=O)Nc2ccc(F)cc2)nnc1C1CC1	2	3	12	2.2	2.0	1	0.6	0	-1	i
58	CCOC(=O)N1CCC(NC(=O)COc2cc(=O)n(C)c3ccccc23)CC1	25	-2	8	-7.7	?	-8	-7.3	-1	1	i
59	COc1ccc(OC)c(C2C(C(=O)c3ccc(C)o3)=C(O)C(=O)N2CCN2CCOCC2)c1 (centres undefined)	-11	1	4	4.3	-5.8	-6	-1.7	-5	1	i
60	CCC(=O)N1CCc2cc(S(=O)(=O)CCC(=O)N3CCN(c4ccccc4F)CC3)ccc21	5	8	8	3.7	-1.0	-5	-12	27	4	i

(cont.)
No.	SMILES	ALR H2O2 inh	Ecoli rRNA inh	Ecoli rRNA inh OD600	Ecoli rRNA inh RFP	RanGTP-Imp inh	T cruzi repl	MLL AF4-AF9 inh	Calb FLC	Beta apoptosis	FGF22 binding
61	CC(=O)Nc1nc(COc2ccc3ccccc3c2)cs1	-10	/	/	/	2.8	-3	/	0	-5	/
62	Cc1ccc(C)c(S(=O)(=O)N2CCCOC2CNC(=O)C(=O)NCCN2CCOCC2)c1 (centres undefined)	-5	5	-2	-3.0	0.7	-8	-8.0	-2	8	i
63	Cc1cc(C)n(-c2ncc3c(n2)N(CCO)CCOC3=O)n1	-9	4	5	-0.1	-1.5	-3	/	-4	-2	i
64	O=C(Cc1nc2ccccc2[nH]1)c1ccc(Br)cc1	/	4	9	13	8.0	38	2.0	-3	2	i
65	COc1cc(/C=C2/NC(=O)N(CC(=O)Nc3cccc(C)c3)C2=O)ccc1OCC(N)=O	-8	12	17	2.2	-2.2	5	-0.7	0	3	i
66	C=C1CCN([C@@H](CC(C)C)C(=O)NCc2ccccc2)S(=O)(=O)c2ccccc21	14	-20	-32	-2.7	0.8	10	1.9	2	-1	i
67	CN(c1ccccc1)S(=O)(=O)c1cccc(NC(=O)COc2cccc([N+](=O)[O-])c2)c1	0	-6	-9	6.3	/	/	0.1	/	-3	i
68	O=[N+]([O-])c1ccc(O)c(/C=N/Nc2ccccc2Cl)c1	-53	-35	-30	-5.1	?	27	0.6	8	-6	i
69	O=C(CNS(=O)(=O)c1ccc2c(c1)OCCCO2)N1CCN(Cc2ccccc2)CC1	73	-3	4	-1.6	/	/	0.5	/	2	i
70	Cn1c(=O)c2nc(NCc3ccccc3)cnc2n(C)c1=O	1	-3	7	-3.3	75*	-8	-41	-9	0	i
